CSC inhib = cancer stem cell inhibition | inhibition, % at 7.5 µM | cancer stem cell-like cells viability, luminescence | 300,000 compounds, 1.1% hits | AID 2717;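 active = mean at 75% or more and at least half the replicates too; inconclusive = mean and replicates disagree; tested in HMLE shEcad cells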;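 also: 0% = median of negative and 100% = median of positive control wells; the first replicate is given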
Env fusion inh = inhibitors of HIV Env-mediated cell fusion | HeLa-JRFL Env/CEM21 cell fusion, luciferase | inhibition, % at 12.3 µM | 360,000 compounds, 1.1% hits | AID 651610;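 active = mean replicate inhibition score of at least 50 and every replicate individually at or above 50; inconclusive = only one of the two criteria met; inactive = mean below 50 and not all replicates reaching 50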;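 also: 0% = plate neutral controls and 100% = maraviroc near 300 nM; one replicate is shown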
Rce1 inhib = yeast Ras-converting enzyme inhibition; Q03530; yeast membranes, quenched prenylated peptide cleavage fluorescence; calls only; 290,000 compounds, 0.27% hits;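 active = fall in fluorescence gain of 50% or more versus controls, with final raw signal at or below 3038400; inconclusive = same 50% fall but final raw signal above 3038400; inactive = fall in fluorescence gain under 50%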;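 also: plate controls were neutral control wells for no effect and wells lacking membranes for full effect; tested at 10 µM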
Target sequence (Q03530 whole entry, looked up): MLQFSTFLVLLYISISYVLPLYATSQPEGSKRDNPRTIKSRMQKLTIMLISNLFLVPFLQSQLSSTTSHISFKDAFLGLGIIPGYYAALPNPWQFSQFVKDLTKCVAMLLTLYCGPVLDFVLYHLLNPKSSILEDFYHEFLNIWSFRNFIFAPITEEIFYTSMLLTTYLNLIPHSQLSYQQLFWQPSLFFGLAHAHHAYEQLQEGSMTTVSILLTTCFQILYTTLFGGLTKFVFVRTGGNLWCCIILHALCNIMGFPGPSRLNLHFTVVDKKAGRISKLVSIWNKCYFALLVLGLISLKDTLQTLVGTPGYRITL
Yeast UUG start = yeast start codon fidelity modulation | S. cerevisiae UUG-firefly luciferase reporter, luminescence/redox ratio | activity score, % at 18.7 µM | 350,000 compounds, 0.13% hits | AID 602363;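 active = replicate mean at a twofold rise or more, about +100% in these data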;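 also: firefly luciferase made from a UUG start codon reports start codon fidelity; reporter light over untreated wells divided by growth signal over untreated wells; some hits fall short of that in this replicate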
PABP polyA inh = PABP-poly(A) binding inhibition; inhibition, % at 35 µM; 290,000 compounds, 1% hits; AID 2014; P11940; PABP-poly(A) RNA binding, fluorescence polarization;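 active = 50% or more with normal probe brightness, or confirmed in later tests; inconclusive = above 50% with abnormal brightness, or retests that disagree; inactive = below 50% or failed in later tests; about a fifth of its hits are not listed in these tables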;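 also: calls also rest on retests at 20 µM and on dose response follow-up; controls were probe without protein and protein plus probe with vehicle; some compounds called inactive have numbers as strong as hits; many hits fall short of the cut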
MT1-MMP act inh = inhibitors of human MT1-MMP activation; 360,000 compounds, 0.061% hits; HT1080 RFP-PRO-GFP cells, GFP/RFP ratio fluorescence, overnight; percent of plate control window, DMSO zero; GFP/RFP ratio change, % at 20 µM; AID 651647; P50281;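 active = GFP/RFP ratio change of at least 30% with cell ATP level not reduced by more than half and red fluorescence within 50% of control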; also: strong numbers were not always called active
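Test system: HT1080 cells expressing an RFP-PRO-GFP fluorescent reporter construct / Compound dosing: single-point 20 µM compound, 1% DMSO / Schedule: cells overnight before dosing, compound overnight, 37 °C, 5% CO2 / Evaluation: GFP/RFP fluorescence ratio / Control set: DMSO and RFP-L50D-GFP cell wells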
eIF4H inh = inhibitors of RNA binding by human eIF4H; Q15056; eIF4H fluorescence polarization binding assay; inhibition, % at 35 µM; 290,000 compounds, 0.94% hits; AID 2012;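 active = 50% or more with normal probe brightness, or confirmed in later tests; inconclusive = above 50% with abnormal brightness, or retests that disagree; inactive = below 50% or failed in later tests; about a fifth of its hits are not listed in these tables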;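 also: calls also rest on retests at 20 µM and on dose response follow-up; 0% = protein and probe with vehicle and 100% = probe without protein; strong numbers were not always called active; many hits fall short of the cut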
MT1-MMP act inh RFP = further read-out of MT1-MMP act inh, marked with its call; RFP signal change, %; measured here: RFP expression control read;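 0 = vehicle wells; hits needed this value within 50% of zero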
An asterisk follows results filed as active; i = inactive; ? = inconclusive; . = not tested or not shown; & = joins results of further samples; [ ] = dose if it differs, or a comment.

The first 2 entries as a preview:
Structure	CSC inhib	Env fusion inh	Rce1 inhib	Yeast UUG start	PABP polyA inh	MT1-MMP act inh	MT1-MMP act inh RFP	eIF4H inh
C[C@H](NC(=O)c1ccccc1Cl)C(=O)Nc1ccccc1F	.	-2.3	i	16.0	2.5	0.7	3.1	-11.6
CN1/C(=C\C(=O)c2cccnc2)Sc2ccccc21	-0.8	-78.9	i	.	-4.0	9.8	5.2	-3.0

The listing, repeating the preview:
Structure	CSC inhib	Env fusion inh	Rce1 inhib	Yeast UUG start	PABP polyA inh	MT1-MMP act inh	MT1-MMP act inh RFP	eIF4H inh
C[C@H](NC(=O)c1ccccc1Cl)C(=O)Nc1ccccc1F	.	-2.3	i	16.0	2.5	0.7	3.1	-11.6
CN1/C(=C\C(=O)c2cccnc2)Sc2ccccc21	-0.8	-78.9	i	.	-4.0	9.8	5.2	-3.0
Cc1ccc(C2c3c(oc4ccccc4c3=O)C(=O)N2CCCN2CCOCC2)o1 (configuration not stated)	-11.3	-40.7	.	-2.0	29.1	-5.2	-5.3	7.7
NC(N)=N/N=C/c1ccc(OCc2ccccc2)cc1	35.9	.	i	-12.7	-14.4	4.7	-1.1	-4.9
CCOc1ccc(C(=O)Nc2ccccc2CC)cc1[N+](=O)[O-]	12.4	.	i	-14.3	1.9	-2.5	-2.2	-1.7
CCN1/C(=C2\C(=O)N(C)C(=S)N2c2ccccc2)C=Cc2ccccc21	-1.0	10.2	i	-13.2	-2.0	-5.0	-4.6	-4.5
Cc1ccc(C)c(CN2C(=O)C3CCCN3c3ccc(S(=O)(=O)N4CCOCC4)cc32)c1 (configuration not stated)	-2.1	.	.	.	?	.	.	?
CNC(=O)NC(=S)NC(=O)c1ccccc1Cl	-3.4	3.8	i	.	-9.3	0.7	6.3	-6.0
Cc1nc(SCc2nc3ccc([N+](=O)[O-])cc3[nH]2)c2oc3ccccc3c2n1	.	26.3	.	-0.5	.	14.3	-21.8	.
O=C(NCCC1CCCCN1S(=O)(=O)c1ccc(F)cc1)C(=O)NCCN1CCOCC1 (configuration not stated)	-17.3	.	i	-12.3	.	-2.5	2.9	.
O=C(c1cccnc1)N1CCC(Oc2ccc(C(=O)N3CCCCO3)cc2)CC1	0.6	9.1	i	-33.9	-5.4	1.9	-2.1	-9.3
CC(=O)N1C[C@@H](CO)[C@@H](N(C)C(=O)C2CCCCC2)C[C@H]1c1ccccc1	.	1.3	.	-1.3	.	2.1	7.4	.
c1ccc2[nH]c(NC3=NCCC3)nc2c1	-5.6	-9.8	i	-25.2	-7.3	-1.3	0.6	-3.3
CCOC(=O)NC(=O)CSc1ccc(C)cc1C	-3.6	-1.1	i	.	-5.0	-2.1	1.4	-0.5
CC(C)Oc1ccccc1NC(=O)CSc1nc2ccccc2c(=O)n1C	.	44.5	i	-17.9	1.2	3.4	-18.1	-7.9
NC(=O)C1CC(=O)N(c2ccc(OCC(=O)NCc3ccccc3)cc2)C1 (configuration not stated)	.	6.5	i	-4.4	6.6	0.6	1.8	0.4
Cc1ccc(S(=O)(=O)N(CC(=O)N/N=C/c2ccco2)Cc2ccccc2)cc1	6.9	-1.3	i	-13.7	8.9	-4.6	-7.5	-4.5
C[C@]1(CO)CCC[C@@]2(C)C1CC[C@@H](CO)[C@@H]2CCc1ccoc1 (some centres not stated)	2.5	0.1	i	-2.5	30.3	-2.6	-4.0	47.7
COc1cc(Cl)ccc1OCc1cc(C(=O)N(C)Cc2nnc(C)o2)no1	-13.5	-31.9	.	-25.7	6.9	-3.0	-1.3	-6.4
Cc1ccc(NS(=O)(=O)c2ccc(-c3ccc(=O)[nH]n3)o2)cc1Cl	-16.9	-7.9	i	-20.6	7.4	-5.5	-3.9	-0.1
Oc1ccc(C[C@H]2CNC(=S)N2C[C@H]2CCCN2C[C@H](Cc2ccccc2)N2C[C@H](Cc3ccc(O)cc3)N(CC3CCCCCC3)C2=S)cc1	.	0.0	.	-24.0	.	0.5	-10.1	.
Cc1nonc1NC(=O)CSc1nc(C2CCCCC2)nc2ccccc12	21.8	21.3	i	-9.4	-9.4	-6.5	-6.0	-3.2
COC(=O)CCCNC(=O)c1ccc(OS(=O)(=O)c2cc([N+](=O)[O-])ccc2C)cc1	13.0	-1.2	i	7.8	.	1.9	-1.3	.
O=C(NCc1ccccc1)C(Cc1ccccc1)N1C(=O)C2C3CCC(C3)C2C1=O (configuration not stated)	-19.0	-50.6	i	4.6	-19.7	3.2	1.4	-0.7
CCCn1c(=O)c2c(nc3n2CCCN3Cc2ccccc2)n(C)c1=O	-8.2	22.2	i	-3.2	-2.9	8.6	-5.0	-13.8
O=C(C1CCC(=O)N(C2CC2)C1)N1CCC(Oc2cccc(F)c2)CC1 (configuration not stated)	-12.8	13.5	i	-11.7	-6.7	2.1	-0.8	-2.8
COc1ccc(-c2nnc(SCC(=O)Nc3ccc(C)cc3)n2C)cc1	2.1	12.2	i	-16.9	4.6	0.5	-3.5	-10.7
COCCNc1c(-c2ccc(OC)c(OC)c2)nc2ccc(Cl)cn12	43.4	-4.6	i	-28.8	6.6	5.4	1.1	7.4
COc1ccc(C(=O)C2CCCN(Cc3cc(Cl)ccc3O)C2)c(OC)c1 (configuration not stated)	21.6	-11.1	i	-4.6	7.9	-4.4	-8.4	10.2
CC(=O)N1CCN2C(=O)C1CCCC(=O)c1cc(C3CCCCC3)ccc12 (configuration not stated)	-12.2	-17.4	i	-1.5	-17.1	2.9	2.7	-4.3
OCC1CCCCN1C(=S)Nc1ccc(Cl)cc1Cl (configuration not stated)	-8.1	27.9	i	.	-1.6	2.8	0.4	1.1
COc1ccc(-c2cc(C(=O)N3CCN(c4ncccn4)CC3)c3ccccc3n2)cc1OC	6.6	1.0	.	9.8	.	-5.0	1.0	.
O=[N+]([O-])c1cccnc1N1CCC(c2cc(-c3cccc(C(F)(F)F)c3)n[nH]2)CC1	122.7*	.	i	-33.6	-14.9	3.9	-7.9	-9.6
COc1ccc(C)cc1NC(=O)CNC(c1ccccc1)c1ccc(C)cc1 (configuration not stated)	55.9	-141.1	i	10.5	1.5	-7.1	-15.6	1.1
CN1CCN(CCc2nc3cc(NC(=O)COc4ccccc4)ccc3n2C)CC1	-11.0	-59.8	i	-8.0	-5.0	3.6	7.7	-3.4
COc1ccc(C)cc1S(=O)(=O)N(CC(=O)N1CCOCC1)c1cc(C)cc(C)c1	-9.5	-9.6	i	25.8	-5.5	-1.3	3.5	-8.1
Cc1ccc(CNC(=O)c2csc3c2CCCCC3)cc1	6.4	-27.5	i	.	6.0	4.2	2.8	-0.2
COc1cccc(C(=O)Nc2ccc(C(=O)c3ccccc3)cc2)c1	11.3	0.9	i	-7.1	5.1	1.3	-20.7	-13.3
Cc1ccc(OCc2ccc(C(=O)NN)o2)cc1C	-2.6	-9.9	i	-17.6	-2.6	5.6	8.2	6.2
CSc1nnc2c(n1)OC(C)N(C(=O)c1ccccc1)c1ccccc1-2 (configuration not stated)	-0.1	-73.6	i	-19.9	-2.0	-1.1	-0.2	6.7
Cc1ccc(-c2ccc(C(=O)NCc3ccc(Cl)cc3)o2)c2ccccc12	37.5	-5.9	i	-9.9	12.3	-1.6	-2.9	7.8
Cc1ccc(S(=O)(=O)C2C(=O)N(C)C3(C)CC2c2ccccc2O3)cc1C (configuration not stated)	-2.9	-11.9	i	.	-1.8	-4.1	-0.8	-3.1
Nc1nc(SCC(=O)c2ccc(Cl)cc2)c2ncn(C3OC(CO)C(O)C3O)c2n1 (configuration not stated)	.	6.2	.	-16.2	.	-4.5	-1.2	.
O=C(O)CSc1c(Cl)c(=O)oc2ccc(Cl)cc12	.	10.1	.	-15.9	.	-2.8	5.3	.
Cn1c(COc2ccc(Cl)cc2)nnc1SCC(=O)NC1CC1	2.5	3.5	.	-16.1	.	-5.9	1.9	.
COc1ccccc1NS(=O)(=O)c1cc(NC(=O)c2ccc3c(c2)OCCO3)ccc1C	12.3	7.2	i	.	-6.5	-3.2	-3.8	-2.9
O=C(NCCCCNC(=O)c1ccc(Cl)s1)c1ccc(Cl)s1	.	.	i	-9.9	-6.4	3.0	2.5	-2.2
O=C(OCC(=O)N1CCCc2ccccc21)c1ccc(F)c(S(=O)(=O)N2CCOCC2)c1	4.3	-1.3	i	5.2	.	-2.4	2.1	.
CCc1nnc(NC(=O)C2CCCN2C(=O)Nc2ccc(Cl)cc2)s1 (configuration not stated)	-13.1	10.5	i	.	8.1	2.6	3.5	-5.6
COc1cc(C(=O)NCCC2=CCCCC2)ccc1OCc1c(C)noc1C	-6.2	.	.	-11.9	.	5.0	-2.5	.

The results go on:
Structure	CSC inhib	Env fusion inh	Rce1 inhib	Yeast UUG start	PABP polyA inh	MT1-MMP act inh	MT1-MMP act inh RFP	eIF4H inh
CC1(C)CC(=O)C=C(Nc2ccc(C(=O)O)cc2)C1	-1.7	-37.6	i	-1.4	-0.8	10.2	3.3	-16.6
O=C(c1cccc([N+](=O)[O-])c1)N1CCCC(C(=O)N2CCN(c3ccccc3)CC2)C1 (configuration not stated)	-13.0	3.0	i	10.5	0.1	-0.1	2.8	-3.4
COCCNC(=S)N1CCC(NC(=O)Nc2ccc(C)cc2)CC1	0.3	4.3	i	.	-1.0	1.4	0.7	-6.9
COc1ccc(NC(=O)Nc2ccc3c(c2)C(=O)N([C@H](C)CO)C[C@H](C)[C@@H](CN(C)C(=O)NC(C)C)O3)cc1	-12.8	4.9[16.7 µM]	.	-7.0&-2.8	.	-4.6	1.9	.
CC(C)[C@H](NC(=O)[C@H](Cc1ccccc1)n1c(=O)[nH]c2ccccc2c1=O)C(=O)N1CCC[C@H]1C(=O)O	-1.1	.	i	-7.7	2.9	-2.3	2.0	16.3
Cc1ccc(C(=O)Nc2ccc(N3CCOCC3)cc2N2CCOCC2)cc1	-5.9	-1.5	i	-8.4	-11.4	2.9	0.4	5.4
CC(C)c1ccc(NC(=S)NC2CCCCCC2)cc1	-8.2	-28.4	i	.	6.0	1.4	-1.4	-3.2
Cc1cc(C)n2nc(SC(C)C(=O)N3CCOCC3)nc2n1 (configuration not stated)	.	-120.0	.	-2.8	.	7.0	1.5	.
CCNC(=O)c1cc2c(=O)n3cccc(C)c3nc2n(Cc2ccc(C)cc2)c1=N	-9.2	.	i	-3.7	-1.3	0.4	-2.9	-2.6

Bioassay records deposited in PubChem BioAssay by several laboratories.

Not all compounds are listed; rates above refer to the full screens.
